Bioassay records as filed in PubChem BioAssay.
gsp agonist = gsp mutant agonism. gsp mutant cells, cAMP HTRF, 30 min; control for the full effect not named in the record. Potency, µM (top dose mostly 76.9 µM), for inactives: top-dose activation (cAMP increase), usual class: activators. actives 0.13% (n = 340,000); active = well fitted activation curve with a large enough effect; inconclusive = small, poorly fitted or top-dose-only effect, or another doubt; inactive = no such curve, though single readings can be large or run the other way; cell line not stated here;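 note: phosphodiesterase inhibitor Ro 20-1724 added with compounds to block cAMP breakdown; potency is the fitted concentration of half-maximal effect; nearly all actives have a fitted effect of over 60% in size; about a fifth of the inactives were tested at one dose only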
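Cells in DMEM/10% FBS with G418 were pretreated with compounds in DMSO plus […] (300 uM stock) for 30 min at 37C. cAMP was measured by HTRF (cAMP-d2 plus anti-cAMP antibody-K) after 30 min at room temperature.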
PINK1 expr mod = modulators of PINK1 expression; PINK1 immunofluorescence, high-content cytometry, 24 h; Potency, µM (titrated, usually from 76.6 µM), without a hit: at the top dose activation (PINK1 increase), usual class: activators; actives 0.2% (n = 410,000); AID 624263; active = well fitted activation curve with a large enough effect; inconclusive = small, poorly fitted or top-dose-only effect; inactive = flat fitted curve, though single readings scatter; cell line not stated here;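 note: potency is the fitted concentration of half-maximal effect; % of control where 0% means no effect; nearly all actives have a fitted effect of over 65% in size; a mitochondrial uncoupler was the plate control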
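Fluorescence from anti-PINK1 antibody, together with nuclear and cell stains, was scanned on a laser-scanning cytometer. Before staining, stable-line cells were incubated 24 hours with compounds at 5 concentrations; primary antibody 12 h at 10 degrees C.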
Sfp inh = Sfp phosphopantetheinyl transferase inhibition; Q9F4F7; Biochemical Sfp PPTase activity, qHTS; Potency, µM, for inactives: max response, negative = inhibition, most hits filed as inhibitors; actives 3.5% (n = 310,000); AID 1490; active = well fitted inhibition curve with a large enough effect; inconclusive = small, poorly fitted or top-dose-only effect, or another doubt; inactive = no such curve, though single readings can be large or run the other way;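 note: the enzyme is Sfp with the accession as filed and its product quenches rhodamine fluorescence; potency is the fitted concentration of half-maximal effect; 0% = enzyme reaction without inhibitor and -100% = no enzyme wells; top concentration of the series not given in the record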
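Buffer: 50 mM Hepes-Na pH 7.6, 10 mM MgCl2, 0.01% Nonidet P-40, 0.01% BSA. Enzyme 15 nM, pre-exposed to compound 15 min; substrates then added and fluorescence change tracked over 30 min.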
D2 agonist = human D2 receptor agonism in beta-arrestin assay. AID 624465. activation, % (no concentration beside the values). DiscoveRx PathHunter D2 beta-arrestin, luminescence, 90 min; 100% = 57 uM dopamine signal. P14416. actives 0.084% (n = 360,000); in the data active = activation above about 40%; inconclusive = about 15% to 40%; inactive = below about 15%; note: compound concentration not given in the record; the text of the record calls up to 30% inactive
Target sequence (P14416 whole entry, looked up): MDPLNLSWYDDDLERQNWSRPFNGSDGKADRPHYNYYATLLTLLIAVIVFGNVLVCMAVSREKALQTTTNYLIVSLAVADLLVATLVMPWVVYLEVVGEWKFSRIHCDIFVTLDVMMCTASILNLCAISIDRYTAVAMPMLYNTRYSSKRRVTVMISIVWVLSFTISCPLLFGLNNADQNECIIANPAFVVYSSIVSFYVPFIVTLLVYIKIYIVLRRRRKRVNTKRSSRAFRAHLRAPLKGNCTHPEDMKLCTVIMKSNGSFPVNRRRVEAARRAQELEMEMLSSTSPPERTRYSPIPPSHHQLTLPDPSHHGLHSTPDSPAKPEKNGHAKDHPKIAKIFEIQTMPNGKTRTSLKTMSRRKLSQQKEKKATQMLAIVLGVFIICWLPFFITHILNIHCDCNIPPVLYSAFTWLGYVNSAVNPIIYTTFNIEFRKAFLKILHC
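Agonist mode: compounds alone added to overnight-plated D2 PathHunter cells for 90 min at 37 C, with 57 uM final dopamine (EC100) defining full response. Beta-arrestin recruitment detected by chemiluminescent reagent, read after 1 h at ambient temperature.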
gsp antag = gsp mutant antagonism. gsp-mutant cells, cAMP HTRF, 30 min; control for the full effect not named in the record. Potency, µM (top dose mostly 76.9 µM), without a hit: top-dose activity change, negative = inhibition, actives largely listed as inhibitors. actives 0.4% (n = 340,000); active = falling curve of any shape with a large fitted effect; inconclusive = falling curve, mostly with a smaller effect; inactive = flat or rising curve; cell line not stated here;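 note: intracellular cAMP measured with PDE inhibitor Ro 20-1724 present during compound exposure; potency is the fitted concentration of half-maximal effect; % is set by controls: 0 for no effect and ±100 for the full control effect; nearly all actives have a fitted effect of over 65% in size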
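Measurement of cellular cAMP by homogeneous time-resolved fluorescence following a 30 min compound exposure at 37C. The PDE inhibitor […] was present throughout; the assay buffer was DPBS with 0.05% BSA and 0.005% Tween 20.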
Menin-MLL FL inh = inhibitors of human menin-MLL interaction, wild-type MLL peptide; Fluorescence polarization, fluorescein-MLL peptide displacement from menin; FP activity change, % at 61.4 µM; 290,000 tested, under 10 active; AID 1766; inconclusive = falling polarisation curve, or a change in total fluorescence; inactive = total fluorescence flat and polarisation flat or rising; no compound was filed as active; the % refers to the polarisation; negative = inhibition;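 note: % of control where 0% means no effect; inhibitors lower the polarisation; unlabelled MLL peptide was the positive control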
ClpP mod = qHTS Assay for Activators of ClpP; ATP-dependent Clp protease proteolytic subunit (Bacillus subtilis (strain 168)), P80244; purified B. subtilis ClpP, FRET peptide cleavage, 20 min; actives 1.9% (n = 340,000); Potency, µM (series often up to 57.5 µM), for inactives: at the top dose activity change, negative = active; active = well fitted falling curve with a large enough effect; inconclusive = small, poorly fitted or top-dose-only effect; inactive = no such curve, though single readings can be large or run the other way; note: potency is the fitted concentration of half-maximal effect; the source files actives as falling curves though it sought activators and does not explain the sign; nearly all actives have a fitted effect of over 65% in size; many hits overshoot -100%
Target sequence (P80244 whole entry, looked up): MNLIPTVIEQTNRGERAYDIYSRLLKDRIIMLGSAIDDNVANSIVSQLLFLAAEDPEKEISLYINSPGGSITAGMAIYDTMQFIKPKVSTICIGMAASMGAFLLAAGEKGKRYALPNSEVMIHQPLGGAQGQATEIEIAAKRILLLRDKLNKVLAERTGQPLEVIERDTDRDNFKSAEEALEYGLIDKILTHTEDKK
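ClpP 10 microg/mL final, pH 8 Tris/KCl buffer with BSA, glycerol, Tween-20; compound pinned in; FRET-FV substrate; RT 20 min; Ex320/Em430; ΔFRET vs ADEP 5.8 microM, DMSO, no enzyme.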
* marks the source's active call; other numbers are inactive results; ? = inconclusive; / = not tested or not shown; [ ] = remark or other dose.

SMILES	gsp agonist	PINK1 expr mod	Sfp inh	D2 agonist	gsp antag	Menin-MLL FL inh	ClpP mod
CCN(CC)C(=O)CN1C(=O)C2(NC(=O)c3ccccc3N2)c2ccccc21 (centres undefined)	-23%	-1.6%	6%	-1.6	7%	-1.3	-6.1%
CCOC(=O)C1=C(O)/C(=C/c2ccc(OCC(=O)Nc3ccc(C)cc3)cc2)N=C1C	-31%[inhibitor]	2.5%	6%	-3.4	0%	/	1.6%
Oc1ccc(/C=N/Nc2ccnc3cc(Cl)ccc23)cc1O	16%	-1.2%	?	8.9	2%	-3.3	-14%
O=C(C1Cc2ccccc2O1)N1CCCCC1 (centres undefined)	4%	1.4%[38.3 µM]	16%	-3.6	12%	0.9	0.3%
O=C(NCc1ccncc1)C(=O)NC1CC1	-14%[15.4 µM]	0.5%	10%	-6.6	15%	-0.8	/
COc1ccc(CNS(=O)(=O)c2ccc3c(c2)N(C)CCO3)cc1	-1%	-0.4%	15%	6.4	-11%	/	-2.2%
NC(=O)C1(N2CCCCC2)CCN(C(=O)c2ccc(C#Cc3ccccc3)o2)CC1	18%	1.2%	-15%	-2.6	-20%	3.6	-5.2%
COc1cccc(OCC(O)CN2CCOCC2)c1 (centres undefined)	-4%	0.5%	-8%	1.6	0%	7.0	-0.6%
N#CCSc1nc(-c2ccccc2)c2cc(Cl)ccc2n1	?	7.8%	6%	-1.1	-12%	1.7	?
O=C(OCC(=O)N1CCCC1=O)c1cc(Cl)ccc1O	8%[15.4 µM]	1.9%	/	0.5	5%	/	41%
Cc1ccc(NC(=O)CSc2nnc(Cn3cnc4ccccc43)o2)c(C)c1	11%	-4.2%	9%	-1.5	-3%	2.4	-2.2%
Cc1cc2[nH]c(=O)cc(-c3ccccc3)n2n1	?	4.8%	-18%	0.7	-12%	-1.0	4.9%
O=C(O)c1ccccc1CSc1ccccn1	-7%[15.4 µM]	0.3%	14%	-2.5	-8%	-0.6	/
O=C1c2cnccc2CN1Cc1ccccc1	-5%	-2.9%	6%	-0.4	10%	1.1	-1.2%
CCN(CC)CC(=O)Nc1ccc(-c2ccc(NC(=O)CN(CC)CC)c(OC)c2)cc1OC	-3%[15.4 µM]	4.1%	12%	-4.0	7%	-0.2	/
CS(=O)(=O)N1CCC2(CC1)CN(Cc1ccccc1)C2	/	0.4%	-4%	/	/	?	/
CN(C)/C=N/C(=S)Nc1cc(Cl)cc(Cl)c1	-6%[15.4 µM]	-0.3%	-2%	2.3	13%	1.6	/
CCC(Oc1ccccc1)C(=O)Nc1ccc(S(=O)(=O)NCC2CCCO2)cc1 (centres undefined)	-26%	9.2%	-2%	-0.4	-3%	3.5	-1.8%
CCOC(=O)N1CCN=C1SCc1ccc(Cl)c(Cl)c1	-6%[15.4 µM]	1.2%	6%	-3.9	8%	1.3	-1.8%
C=CCn1c(-c2cccn(Cc3ccc(Cl)cc3Cl)c2=O)n[nH]c1=S	21%	-15%[38.3 µM]	-3%	-3.4	-31%	0.4	35%
C=CCNC(=O)CSc1nc2cc(C(=O)OCC)ccc2n1CC	-47%[inhibitor]	10%[38.3 µM]	-7%	-2.7	-22%	1.4	-4.4%
Cc1ccc(NC(=O)CCS(=O)(=O)c2ccccc2)cc1S(=O)(=O)N1CCCCCC1	15%[15.4 µM]	3.5%	/	-2.7	-10%	/	/
CC(C)(C)N1CC(C(=O)Nc2ccc(C(N)=O)cc2)CC1=O (centres undefined)	7%	3.2%	/	-1.1	/	/	0.1%
COc1ccc(NC(=O)c2c(Nc3ccccc3)sc(C(=O)c3ccc(F)cc3)c2N)cc1	-59%[inhibitor]	?	-17%	-0.2	?	3.2	0.7%
Cc1ccc(NC(=S)N(Cc2ccccc2)Cc2cccs2)c(C)c1	0%[15.4 µM]	6.9%	4%	-6.3	-3%	-1.5	/
The list goes on.
SMILES	gsp agonist	PINK1 expr mod	Sfp inh	D2 agonist	gsp antag	Menin-MLL FL inh	ClpP mod
Cc1cccc(OCCC(=O)Nc2ccccc2C(N)=O)c1	-11%[15.4 µM]	0.4%	15%	-0.1	1%	11	/
CCCCN(CC)CCNc1c(NC2CCN(C(=O)OCC)CC2)c(=O)c1=O	2%	0.0%	17%	-4.7	8%	-0.4	1.2%
CCCCCCCCCCCC(=O)N1CC(=O)NC(=O)C1	-11%[15.4 µM]	-0.3%	10%	-2.6	6%	14	/
CCSc1ccccc1C(=O)Nc1nncs1	11%	2.4%	-2%	-3.6	12%	0.2	-0.2%
Cc1onc(-c2ccccc2)c1C(=O)NCCc1ccc(S(N)(=O)=O)cc1	-66%[inhibitor]	0.0%[38.3 µM]	-20%	-1.7	10%	-2.6	-2.2%
OC[C@@H]1CN(Cc2ccc(F)cc2)C[C@H](n2cnc3c(NCc4ccc(F)cc4)ncnc32)O1	/	0.4%	/	-2.6	/	/	-15%
O=[N+]([O-])c1cc([N+](=O)[O-])c(Oc2ccc(F)cc2F)cc1NN1CCCCC1	?	2.5%	-10%	0.4	0%	-4.5	-1.9%
Cc1ccccc1OCC(O)Cn1c(NCc2ccco2)nc2c1c(=O)n(C)c(=O)n2C (centres undefined)	0%	/	8%	-1.7	-10%	3.2	-1.8%
CCOc1ccc(C2C(C#N)=C(C)NC3=C2C(=O)c2ccccc23)cc1 (centres undefined)	6%	4.4%	?	-7.4	-14%	11	-11%
CCn1c(=O)cc(OCC(=O)NCCCN2CCC(C)CC2)c2ccccc21	6%	5.0%[38.3 µM]	10%	-3.1	5%	0.9	-9.9%
COc1ccc(NC(=O)CCc2nnc3ccc(N4CCN(c5cccc(OC)c5)CC4)nn23)cc1	-28%	1.4%	2%	5.3	-22%	/	0.0%
COc1ccccc1-c1nc(NCCc2cnc[nH]2)c2ccccc2n1	/	-1.5%	15%	/	/	-6.8	/
Cc1ccccc1C(=O)NCC(=O)OCCOc1ccc(C(C)C)c(C)c1	-26%	4.5%	/	-2.2	-11%	/	-2.5%
Cc1ccc(NC(=O)C2CCCO2)c(Br)c1 (centres undefined)	-26%	1.8%	/	-5.7	2%	/	-1.2%
CCOc1ccc2oc(-c3ccccc3)c(C(=O)N3CCN(C)CC3)c2c1	18%	1.8%	12%	-2.5	8%	0.6	11µM*
Cc1csc(NC(=O)c2ccc(Cl)nc2)n1	0%	5.2%	18%	-2.6	4%	5.3	1.8%
CCN1C[C@@H]2[C@@H]3C(=O)N(Cc4ccccc4)C(=O)[C@@H]3[C@](CC)(C1=O)N2C(=O)c1ccc(Br)cc1	-1%	-0.4%	/	-0.5	-3%	/	0.2%
CC(=O)NCc1ccc(-c2csc(NC(=O)CCc3nc4ccccc4c(=O)[nH]3)n2)s1	-3%[15.4 µM]	3.0%	/	2.0	-13%	/	0.7%
COc1ccc(C(=O)CCC(=O)O)cc1	3%	-0.4%	19%	0.6	8%	6.0	2.1%
CC(=Nc1ccccc1)C1=C(O)C(Cc2cccc(F)c2)NC1=O (centres undefined)	?	11%	/	-6.3	/	/	0.0%
Cc1ccc(-c2cnc(C(O)c3ccc(C)cc3)[nH]2)cc1 (centres undefined)	/	2.2%	/	-4.1	/	/	-2.4%
C=CCC1c2cccc(C(=O)O)c2C(=O)N1c1ccc(F)cc1 (centres undefined)	-5%	7.8%[38.3 µM]	9%	0.4	-12%	-2.0	-2.6%
Fc1ccccc1N1CCN(C2CCCN(Cc3ccccc3C(F)(F)F)C2)CC1 (centres undefined)	2%	?	7%	-2.4	-5%	0.8	0.4%
COc1ccc(C(=O)c2c[nH]c(C(=O)NCc3ccco3)c2)cc1	-35%[inhibitor]	5.5%	2%	-1.0	-8%	-0.8	-2.3%
COc1ccc2[nH]cc(CCNC(=O)c3ccccc3Cl)c2c1	-22%	-2.6%	23%	-0.5	1%	1.1	/
Next structures follow:
SMILES	gsp agonist	PINK1 expr mod	Sfp inh	D2 agonist	gsp antag	Menin-MLL FL inh	ClpP mod
COc1ccc(-c2[nH]ncc2-c2cscn2)c(O)c1	-4%	0.7%	16%	0.4	3%	-1.6	/
COc1cc2c(cc1OC)[C@@H](NC(=O)CCc1ccccc1)[C@H](OCc1ccccc1)C2	/	0.9%	/	-1.1	-25%	/	-1.0%
O=C(Nc1nnc(-c2ccccc2Cl)o1)c1ccco1	-16%	-0.9%[38.3 µM]	-8%	6.1	-22%	4.2	-0.6%
CN(c1ccccc1)c1nc(N)c([N+](=O)[O-])c(N2CCOCC2)n1	-2%[15.4 µM]	-0.6%	7%	-4.0	-10%	1.0	-0.4%
COc1ccc(/C=C2/C(=O)N(c3ccccc3)N=C2C)cc1OC	?	9.7%	13%	-2.5	-2%	1.0	/
O=C1CSC(c2ccc([N+](=O)[O-])cc2)N1c1ccc(O)cc1 (centres undefined)	-3%[15.4 µM]	1.8%	6%	-1.6	-10%	-26	-0.7%
CS(=O)(=O)c1ccc(-c2nnn(CC(=O)Nc3ccc4c(c3)OCCO4)n2)cc1	15%[15.4 µM]	15%	-12%	-2.1	-19%	-15	0.4%
CCOc1ccc(CCNC(=O)Cc2ccc(NC(=O)C3=C(C)OCCS3)cc2)cc1	-5%	2.0%	15%	1.0	-6%	/	-1.3%
COc1cc2sc(-c3ccc(S(C)(=O)=O)cc3)c(C(=O)NCc3ccc(C)o3)c2cc1OC	/	-1.5%	/	11	-13%	/	5.1%
O=C(CNC(=O)c1ccccc1F)N/N=C/c1ccc2c(c1)OCO2	-6%[15.4 µM]	4.6%	-3%	-4.0	-1%	-1.6	/
Cc1ccc(OCC(=O)NCCCNC(=O)c2cccnc2)cc1	?	-0.6%	5%	-4.1	6%	2.3	/
CCCc1ccc(C2=Nn3c(nnc3C(C)C)SC2)cc1	?	6.8%	22µM*	-1.3	2%	1.9	/
CCOc1cc(/C=N/O)ccc1OS(=O)(=O)c1ccc(C)cc1	5%	0.9%	3%	2.9	-6%	1.1	-0.8%
C=CCN1C(=O)c2ccc(C(=O)N3CCN(S(=O)(=O)c4cccc(Cl)c4)CC3)cc2C1=O	-9%[15.4 µM]	2.0%	14%	-2.6	-12%	/	-5.2%
